Rango release inh – qHTS Assay for Inhibitors of RanGTP induced Rango (Ran-regulated importin-beta cargo) - Importin beta complex dissociation; Biochemical FRET Rango-importin beta, RanGTP-induced dissociation; AID 540253, 2011; actives 0.071% (n = 340,000); Potency, µM (series often up to 46.1 µM), without a hit: at the top dose activity change, negative = inhibition; Snurportin-1 (Homo sapiens) + GTP-binding nuclear protein Ran (Homo sapiens) + Importin …; active means falling FRET ratio curve, often poorly fitted, with flat reads before Ran was added; inconclusive means other falling curves, or compound fluorescence or quenching; inactive means flat or rising ratio curve;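 also: potency is read from the fitted curve at half-maximal effect; % of control where 0% means no effect; nearly all actives have a fitted effect of over 45% in size; -100% = wells without RanGTP and RCC1; the record marks most hits as doubtful in a second field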
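Compounds preincubate 5 min with complex of recombinant Rango and importin beta in PBS with 1 mM DTT. Ran (0.6 uM) loaded with 2 mM GTP plus 0.2 uM RCC1 starts dissociation; FRET is recorded 45 min later.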
miR-21 FLuc – qHTS Assay for Modulators of miRNAs and/orActivators of miR-21; HeLa miR-21 FLuc reporter, luciferase, 48 h; Potency, µM (titrated, usually from 38.3 µM), for inactives: at the top dose reporter change, positive = more light; 340,000 tested, under 10 active; active = well fitted rising curve with a large enough effect; inconclusive = small, poorly fitted or top-dose-only effect; inactive = no such curve, though single readings can be large or run the other way;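 also: % of control where 0% means no effect; miR-21 action dims this reporter so a rising signal means less miR-21 action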
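Luminescence from a firefly luciferase reporter carrying a miR-21 binding site downstream, stably expressed under a CMV promoter in HeLa cells that make miR-21 endogenously, reports miRNA modulation after 48 h compound exposure up to approximately 40uM final.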
Rango-impB inh – qHTS Assay for Inhibitors of Rango (Ran-regulated importin-beta cargo) - Importin beta complex formation. Rango CFP/YFP FRET sensor + importin beta, 45 min. AID 540263, 2011. actives 0.031% (n = 340,000). Potency, µM (highest dose often 92.2 µM), without a hit: at the highest dose inhibition of complex formation. Importin subunit beta-1 (Homo sapiens), Q14974; active = rising FRET ratio curve, often small or poorly fitted; inconclusive = mostly compound fluorescence or quenching in the first reads; inactive = flat curves in all reads;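 also: potency is read from the fitted curve at half-maximal effect; 0% = DMSO wells and 100% = buffer wells lacking importin beta; nearly all actives have a fitted effect of over 15% in size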
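Inhibition scored from the CFP 486 nm/YFP 530 nm FRET ratio 45 min after adding 0.125 microM importin beta to 50 nM Rango biosensor preincubated 5 min with compound (room temperature, PBS with DTT, Tween-20, BSA). No-importin wells as positive control.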
GLA inh pH 4.5 – qHTS Assay for Inhibitors of Human alpha-Galactosidase at pH 4.5; purified enzyme, 4-MU-alpha-Gal fluorescence, pH 4.5; 230,000 tested, under 10 active; activity change, negative = inhibition, % at 105 µM; inconclusive = small, poorly fitted or top-dose-only inhibition, or a rising curve; inactive = flat fitted curve, though single readings scatter; no compound was filed as active;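 also: 0% = full activity with enzyme and -100% = basal without enzyme; dose as in the result columns while the protocol names 77 µM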
Target sequence (P06280 whole entry, looked up): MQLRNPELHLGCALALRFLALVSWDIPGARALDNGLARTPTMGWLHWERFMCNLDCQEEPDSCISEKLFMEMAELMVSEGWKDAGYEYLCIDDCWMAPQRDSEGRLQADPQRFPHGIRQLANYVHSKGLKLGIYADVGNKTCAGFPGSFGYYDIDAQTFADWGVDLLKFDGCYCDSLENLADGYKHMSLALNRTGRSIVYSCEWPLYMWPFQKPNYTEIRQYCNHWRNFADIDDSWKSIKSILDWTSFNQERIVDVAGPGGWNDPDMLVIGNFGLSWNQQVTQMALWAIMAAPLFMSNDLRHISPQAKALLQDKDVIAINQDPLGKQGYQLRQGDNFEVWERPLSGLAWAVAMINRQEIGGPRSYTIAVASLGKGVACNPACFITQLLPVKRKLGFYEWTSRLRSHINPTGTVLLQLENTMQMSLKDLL
Numbers without * were called inactive; u = inconclusive; x = not tested or not shown; & = joins results of further samples. A portion of the library (hit frequency here may not be typical).

SMILES	Rango release inh	miR-21 FLuc	Rango-impB inh	GLA inh pH 4.5
COC(=O)[C@@H]1C[C@]2(C(=O)O)c3ccccc3N(OOSc3ccccc3)[C@@H]2N1C(=O)OC	-10%	x	0.6%	x
OCCN(CC#CC(O)(c1ccccc1)C1CCCC1)CCO (configuration not stated)	-2%	-5%	-4.1%	-4
COc1ccc(C2=CC(c3ccc4c(c3)OCO4)c3c(c4ccccc4oc3=O)O2)cc1OC (configuration not stated)	-8%	x	-4.7%	x
COC(=O)C1=C(c2ccc(S(C)(=O)=O)cc2)C[C@@H]2CC[C@H]1N2C(=O)NCc1ccco1	-18%	x	-2.0%	x
O=C(c1ccco1)c1cn(Cc2ccc(Cl)cc2)c2ccccc12	5%	11%	1.6%	4
Cn1c(O)c(C=NCc2cccs2)c(=O)n(C)c1=O	-11%	7%	-0.2%	1
CC(C)(C)n1cc(C(=O)c2ccccc2OCCCF)cn1	-9%	-4%	3.1%	x
O=C(O)CCC(=O)NCCC1=c2ccccc2=N/C1=C\c1c(O)n(Cc2ccc(F)cc2)c(=S)[nH]c1=O	-22%	-14%	u	-1
COc1ccc(CC2(CCc3ccncc3)C(=O)NC(=O)NC2=O)c(OC)c1	-17%	2%	-0.2%	8
COC(=O)C1=C(c2cccc(C#N)c2)C[C@@H]2CC[C@H]1N2C(=O)NCCO	7%	x	3.1%	x
CN1CCN(Cc2ccccc2Sc2ccccc2)CC1	5%	3%	-3.8%	-2
O=[N+]([O-])c1cccc(O)c1	-7%	x	3.0%	x
COc1ccc(NC(=S)NC(NC(=O)CF)C(Cl)(Cl)Cl)cc1[N+](=O)[O-] (configuration not stated)	-9%	0%	3.2%	-25
CCC(CC)NCc1c[nH]c2ccccc12	5%	6%	8.9%	-4
CC(=O)c1ccc2c(c1)C1C(Cl)C(Sc3ccccc3[N+](=O)[O-])CC1C(c1ccccc1)N2 (configuration not stated)	15%	-1%	5.5%	-2
Cc1nc2ccccc2c(=O)n1-c1ccc(Cl)cc1[N+](=O)[O-]	-10%	4%	u	-2
O=C(COc1ccc(S(=O)(=O)N2CCCCC2)cc1)N1CCN(Cc2ccccc2)CC1	4%	9%	0.4%	3
Cc1ccccc1CCNCc1ccc(Br)cc1	8%	-8%	-0.3%	-4
COc1ccc(-c2nc3ccccc3n2OC(=O)N(C)C)cc1	6%	-27%	3.8%	8
N=C1c2ccccc2CN1NC(=O)c1ccco1	23%	x	2.7%	x
Cc1cc(C=C2C(=O)NC(=S)NC2=O)c(C)n1C1CCCC1	-22%	-17%	u	-3
Cc1ccc(S(=O)(=O)N2CCN(C(=O)COC(=O)Cc3ccccc3)CC2)c(C)c1	9%	x	-0.7%	x
COc1ccc(-n2nc(C(=O)NCC(=O)N3CCC4(CC3)OCCO4)c3ccccc3c2=O)cc1	10%	8%	2.9%	x
O=C1NC(=O)C2(Cc3ccccc3N3CCOCC32)C(=O)N1c1ccccc1 (configuration not stated)	10%	19%	0.1%	3
C=CCn1c(O)c(/C=N/N2CCCCC2)c(=O)[nH]c1=O	-2%	1%	-5.9%	3
CCN(CC)c1ccc(N=Cc2c(O)n(CCC3=CCCCC3)c(=O)[nH]c2=O)cc1	u	1%	u	5
O=c1[nH]c(=O)n(-c2cccc(Cl)c2)c(O)c1C=NCCCN1CCOCC1	-15%	2%	-0.1%	-2
C=CCN(CC#CCOc1ccccc1OC)CC=C	x	-6%	x	4
CCOc1ccc(N=Cc2c(O)n(Cc3ccccc3)c(=S)[nH]c2=O)cc1	-2%	5%	-0.2%	4
O=C(c1ccncc1)C12CN3CN(CN(C3)C1)C2	17%	-4%	2.8%	1
C=CC(=O)OCCO	-1%	x	-2.6%	x
COc1ccc(OC)c(CC(=O)O)c1	-10%	1%	-2.3%	-5
CCC(=O)c1c(O)n(C2CCCCCC2)c(=O)[nH]c1=O	-11%	-10%	-5.0%	4
C[N+]1(C)C2CC(OC(=O)C(CO)c3ccccc3)CC1C1OC12 (configuration not stated)	1%	x	2.6%	0&-4&6
O=C(COc1ccc(Br)cc1)N1CCN(Cc2ccc3c(c2)OCO3)CC1	7%	6%	2.6%	x
CCCCNc1ccncc1S(=O)(=O)NC(=O)NC(C)C	-7%	0%	-3.0%	2
CCOC(=O)c1ccc2[nH]c(-c3ccc(S(=O)(=O)F)cc3)cc(=O)c2c1	-11%	3%	0.4%	4
CCCCn1c(O)c(C(C)=NCc2ccc3c(c2)OCO3)c(=O)[nH]c1=O	-3%	-1%	0.0%	-4
CCCC(CCC)C(=O)OC[N+](C)(C)CCOC(=O)C(O)(c1ccccc1)C1CCCC1 (configuration not stated)	-24%	4%	3.1%	2
O=C1NC(=O)C(CCc2ccncc2)(CCc2ccncc2)C(=O)N1CCc1ccccc1	-13%	-1%	-0.2%	7
O=C(N/N=C/c1c(O)n(Cc2ccc(F)cc2)c(=S)[nH]c1=O)c1ccncc1	u	-7%	u	-2
c1ccc(C2NCCc3[nH]cnc32)cc1 (configuration not stated)	0%	3%	2.1%	-1
O=[N+]([O-])c1cccc2c([N+](=O)[O-])cccc12	9%	x	-1.9%	x
O=c1[nH]c(=S)n(Cc2ccc(F)cc2)c(O)c1C=NCc1cccnc1	8%	0%	4.3%	13
CC1CCN(C(=O)CCl)CC1	-5%	9%	2.4%	-5

Two of the compounds above, with two lines to a compound:
Below each SMILES: Rango release inh | miR-21 FLuc | Rango-impB inh | GLA inh pH 4.5
COC(=O)C1=C(c2ccc(S(C)(=O)=O)cc2)C[C@@H]2CC[C@H]1N2C(=O)NCc1ccco1
  -18% | x | -2.0% | x
Cc1ccccc1CCNCc1ccc(Br)cc1
  8% | -8% | -0.3% | -4

More entries
SMILES	Rango release inh	miR-21 FLuc	Rango-impB inh	GLA inh pH 4.5
COc1ccc(CCn2c(O)c(C=NCc3cccnc3)c(=O)[nH]c2=O)cc1OC	-16%	-8%	-0.2%	1
O=C(c1ccc(C(F)(F)F)cc1)C1CCCN(Cc2ccncc2)C1 (configuration not stated)	-6%	12%	-1.5%	0
CC(=O)OC1(c2ccccc2)CCN(C)C(C)C1C (configuration not stated)	17%	-5%	-2.0%	3
CN(C)CCN=Cc1c(O)n(-c2cccc3ccccc23)c(=O)[nH]c1=O	13%	-9%	-4.4%	4
CN/C=C(/Cl)P(=O)(OC(C)C)OC(C)C	24%	x	-5.0%	x
O=C(Oc1c(Cl)cc(Cl)c2ccccc12)N1CCCCC1	2%	-13%	-3.5%	10
CC(=O)OC1C2(CC3N4C(=O)C5(CO)SSC4(CC31O)C(=O)N5C)OC(C)C(C)(C)C2=O (configuration not stated)	1%	x	-4.3%	x
O=[N+]([O-])c1ccc(N2CC2)c([N+](=O)[O-])c1	7%	x	-2.2%	x
O=C1Nc2cc(C(=O)N3CCC4(CC3)OCCO4)ccc2S/C1=C\c1ccccc1	0%	22%	u	x
Cc1ccc(/C=C2\C(=O)NC(=S)N(c3cccc(F)c3)C2=O)o1	u	-1%	u	x
COc1ccc(/C=C2\SC(=O)N(CCn3cnnn3)C2=O)cc1	2%	-38%	0.3%	-2
CC(=O)OC(C)(C)/C=C/C(=O)[C@](C)(O)C1[C@H](O)C[C@@]2(C)C3CC=C4C(C[C@H](O)C(=O)C4(C)C)[C@]3(C)C(=O)C[C@]12C (some centres not stated)	-2%	x	-2.3%	x
CC1(C)CC(=O)C(C=NCCN2CCN(C(=O)Cc3ccc(Cl)cc3)CC2)=C(O)C1	-9%	-1%	-0.8%	-10
Nc1ccc(-c2ccccc2)cc1	-3%	x	-5.8%	x
COc1ccc(CN2CCN(Cc3ccccc3OC)CC2)cc1	0%	-3%	5.6%	x
Fc1ccc(C2=CCN(C(c3ccc(Cl)cc3)c3nnnn3Cc3ccccc3)CC2)cc1 (configuration not stated)	3%	3%	3.7%	-4
CCOCCN1CCN(c2nnc3n2-c2ccc(Cl)cc2C(c2ccccc2Cl)=NC3)CC1	3%	-4%	-2.4%	-2
CCOC(=O)c1c(C)n(Cc2ccccc2)c2ccc(OCC(O)CNC(C)(C)C)cc12 (configuration not stated)	-3%	u	4.0%	x
N#CC(C(=O)C12CC3CC(CC(C3)C1)C2)c1nc2ccccc2[nH]1 (configuration not stated)	0%	-3%	u	-7
COC/C=C1\CN2C3C[C@@H]1[C@H]1COC4=Nc5cc(OC)c(OC)c(OC)c5[C@@]43C[C@@H]12	2%	x	1.5%	x
COc1cccc(CNCCc2ccc(F)cc2)c1	-11%	-10%	6.3%	x
O=C(NC1CCCCC1)N1C[C@H]2C[C@@H](C1)c1cccc(=O)n1C2	-6%	4%	-1.0%	x
Cc1ccccc1-n1c(O)c(C=NCCN2CCOCC2)c(=O)[nH]c1=O	-14%	-7%	u	3
CCCCn1c(O)c(C(C)=NCC2CCCO2)c(=O)[nH]c1=O (configuration not stated)	-9%	-1%	-6.3%	5
Cc1ccccc1CN1CCNCC1	0%	-5%	-0.5%	6
COC(=O)C1=C(c2cccc(OC)c2OC)C[C@@H]2CC[C@H]1N2C(=O)N1CCC(C)CC1	u	x	-4.9%	x
CCC1(CC)C(=O)N(C)C(=O)NC1=NC	-2%	-4%	5.5%	3
CC/C(=N\Nc1ccccc1)c1c(O)n(C)c(=O)n(C)c1=O	9%	16%	1.5%	1
COCCOC(=O)C1=C(C)OC(N)=C(C(=O)OC)C12C(=O)Nc1ccccc12 (configuration not stated)	0%	-7%	-0.2%	5
COC(=O)C1=C(c2ccc(-c3ccccc3)c(F)c2)C[C@@H]2CC[C@H]1N2C(=O)NCCO	1%	x	-0.4%	x
COc1ccc2c3c1OC1C(O)C=CC4C(C2)[N+](C)(C)CCC341 (configuration not stated)	16%	-2%	0.7%	x
COc1ccc(CC2c3cc(OC)c(OC)cc3CCN2C)cc1OC (configuration not stated)	1%	-9%	0.0%	3&6
Cc1cccc(OP(N)(=O)Oc2cccc(C)c2C)c1C	-1%	3%	-0.7%	-6
Cc1cccc(C)c1NC1=NCCCCS1	32%	0%	-1.8%	3
COCCn1c(-c2ccccc2)cc(C(=O)O)c1C	u	x	u	x
Cc1cc(C=C2C(=O)NC(=O)NC2=O)c(C)n1-c1ccncc1	8%	-1%	1.2%	2
Cc1ccc2cc3cc(C(=O)N4CCC5(CC4)OCCO5)oc3nc2c1	6%	-10%	-0.3%	0
CC1=C(C/C(C)=C/c2ccccc2)/C(=C/CO)[C@@H]2OC(=O)O[C@]2(C)C12CC2	3%	x	0.5%	x
N/C(=N\[N+](=O)[O-])N1CCN(C(=O)c2ccccn2)CC1	0%	-3%	2.0%	x
CC(=O)OC1N=C(c2ccc(Cl)cc2)c2cc(Br)ccc2NC1=O (configuration not stated)	-2%	-9%	0.5%	5
CCNC(=O)NNC(=O)C1CC(c2cccnc2)=NO1 (configuration not stated)	-6%	0%	0.2%	0
COC(=O)C1=C(c2ccc(Cl)c(C(F)(F)F)c2)C[C@@H]2CC[C@H]1N2C(=O)N1CCOCC1	19%	x	2.9%	x
CNC(=O)Oc1ccc(-c2cn3cc(C)ccc3n2)cc1	1%	u	3.1%	-5
Cc1ccc(N2C(=O)NC(=O)C(CCc3ccncc3)(Cc3cccc(Cl)c3Cl)C2=O)cc1 (configuration not stated)	1%	-2%	4.6%	-2
CC(C)C(=O)Nc1nnc(CCN(CCc2nnc(NC(=O)C(C)C)s2)[N+](=O)[O-])s1	-1%	3%	0.5%	1

Rewritten with each value named: entries from further up.
Cc1cccc(OP(N)(=O)Oc2cccc(C)c2C)c1C
  Rango release inh = -1%
  miR-21 FLuc = 3%
  Rango-impB inh = -0.7%
  GLA inh pH 4.5 = -6

Cc1cccc(C)c1NC1=NCCCCS1
  Rango release inh = 32%
  miR-21 FLuc = 0%
  Rango-impB inh = -1.8%
  GLA inh pH 4.5 = 3

COCCn1c(-c2ccccc2)cc(C(=O)O)c1C
  Rango release inh = u
  miR-21 FLuc = x
  Rango-impB inh = u
  GLA inh pH 4.5 = x

Cc1cc(C=C2C(=O)NC(=O)NC2=O)c(C)n1-c1ccncc1
  Rango release inh = 8%
  miR-21 FLuc = -1%
  Rango-impB inh = 1.2%
  GLA inh pH 4.5 = 2
